# Assay outcomes from PubChem.
# Vaccinia inh: blocks a specific stage of Vaccinia orthopoxvirus infection; activity change (mCherry), % (test concentration not listed); AID 1053133; 0.01% of 89,000 active; Vaccinia-infected cells, mCherry/Venus stage reporter fluorescence; hits give low values; some inactives read as strong as hits;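 active = mCherry past -33% and 40 or more points under the early reporter, replicates agreeing; inconclusive = past -33% without that gap or agreement; tested in A549 cells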;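 note: scaled between vehicle wells and reference inhibitor wells; 23 nL library stock went into each well; one replicate is shown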
# Vaccinia inh Venus: further read-out of Vaccinia inh, marked with its call; activity change (Venus), %; measured here: Venus reporter, other viral stage;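 negative = less Venus signal; first of two replicates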
# Active calls of the source: *; u = inconclusive; x = not tested or not shown; & = joins results of further samples.
SMILES,Vaccinia inh,Vaccinia inh Venus
O=C(C[C@H]1CC[C@@H](NC(=O)Nc2ccc(C(F)(F)F)cc2)[C@@H](CO)O1)NCc1ccccn1,8,9
CN1CCN(C(=O)C[C@@H]2CC[C@@H](NC(=O)Cc3ccccn3)[C@H](CO)O2)CC1,3,6
CO[C@H]1CN(C)C(=O)c2ccc(NC(=O)c3cnccn3)cc2OC[C@@H](C)N(CC2CC2)C[C@H]1C,15,19
COc1ccc(S(=O)(=O)N(C)C[C@H]2OCCCC[C@@H](C)Oc3ccc(NS(=O)(=O)c4cn(C)cn4)cc3C(=O)N([C@@H](C)CO)C[C@H]2C)cc1,u,x
C[C@H]1CN([C@@H](C)CO)S(=O)(=O)c2ccc(C3=CCCCC3)cc2O[C@@H]1CN(C)C(=O)C1CCCCC1,u,x
COc1ccc(S(=O)(=O)N(C)C[C@@H]2Oc3c(NS(C)(=O)=O)cccc3C(=O)N([C@@H](C)CO)C[C@@H]2C)cc1,2,15
COc1ccc2c3c([nH]c2c1)[C@@H](CO)N(Cc1cccc(F)c1)CC31CN(C(C)=O)C1,7,8
CO[C@@H]1CN(C)C(=O)c2ccc(NC(C)=O)cc2OC[C@H](C)N(C(=O)c2ccccc2)C[C@H]1C,9,4
C[C@@H]1CN([C@@H](C)CO)C(=O)c2cc(-c3cncnc3)cnc2O[C@@H]1CN(C)Cc1ccc(F)cc1,11,7
CCC(=O)N(C)C[C@@H]1Oc2ncc(C#CC(C)C)cc2C(=O)N([C@H](C)CO)C[C@@H]1C,9,2
COc1ccc(S(=O)(=O)N2C[C@H](O)COC[C@@H]3O[C@@H](CC(=O)NCc4ccc(Cl)c(Cl)c4)CC[C@H]32)cc1,-21,-12
CN(C)CCCNC(=O)C[C@H]1CC[C@@H]2[C@H](COC[C@H](O)CN2Cc2cc(F)cc(F)c2)O1,3,-2
COc1ccc(C#Cc2cnc3c(c2)C(=O)N([C@@H](C)CO)C[C@@H](C)[C@H](CN(C)C(C)=O)O3)cc1,3,3
C[C@H](CO)N1C[C@H](C)[C@@H](CN(C)C)Oc2ncc(/C=C/c3ccccc3)cc2C1=O,-6,-4
Cc1ccc(S(=O)(=O)Nc2ccc3c(c2)C(=O)N([C@@H](C)CO)C[C@H](C)[C@H](CN(C)C(=O)NC(C)C)O3)cc1,0,-3
Cc1ccc(S(=O)(=O)N(C)C[C@@H]2Oc3c(NC(=O)Nc4ccccc4)cccc3C(=O)N([C@@H](C)CO)C[C@H]2C)cc1,4,3
Cc1noc(C)c1S(=O)(=O)Nc1ccc2c(c1)C(=O)N([C@H](C)CO)C[C@@H](C)[C@H](CN(C)Cc1ccc(C(=O)Nc3ccccc3N)cc1)O2,30,0
Cc1noc(C)c1NC(=O)N(C)C[C@@H]1Oc2ncc(Br)cc2C(=O)N([C@H](C)CO)C[C@@H]1C,11,4
CN1CCN(C(=O)C[C@H]2C[C@@H]3c4cc(NC(=O)NC5CCCCC5)ccc4O[C@@H]3[C@@H](CO)O2)CC1,8,17
CCCC#Cc1cnc2c(c1)C(=O)N([C@H](C)CO)C[C@H](C)[C@H](CN(C)C(=O)c1cnccn1)O2,15,7
CO[C@@H]1CN(C)C(=O)c2ccc(NS(C)(=O)=O)cc2OC[C@H](C)N(C(=O)CN(C)C)C[C@@H]1C,7,2
CCNC(=O)C[C@@H]1CC[C@H]2[C@H](COc3ccc(NC(=O)c4ccc(F)c(F)c4)cc3C(=O)N2C)O1,11,15
CC(C)NC(=O)N1[C@@H]2c3cccc(=O)n3C[C@@H]2[C@@H](CO)[C@@H]1C(=O)N1CCc2ccccc2C1,10,9
CO[C@H]1CN(C)C(=O)c2ccc(NS(=O)(=O)c3ccc(Cl)cc3)cc2OC[C@H](C)N(C)C[C@@H]1C,13,17
COc1ccc(NC(=O)Nc2ccc3c(c2)C(=O)N([C@@H](C)CO)C[C@H](C)[C@H](CN(C)C(=O)Nc2ccccc2)O3)cc1,7,-4
CO[C@@H]1CN(C)C(=O)c2ccc(NC(=O)C3CC3)cc2OC[C@H](C)NC[C@@H]1C,-2,-3
C[C@@H]1CN([C@H](C)CO)C(=O)c2cc(NC(=O)Cc3ccccc3)ccc2O[C@H]1CN(C)C(=O)Nc1ccc(C(F)(F)F)cc1,0,-4
O=C(C[C@H]1CC[C@H](NC(=O)Nc2ccc(F)cc2)[C@@H](CO)O1)NCc1cccc(F)c1,15,3
C/C=C/c1ccc([C@H]2[C@@H](CO)N(C(C)=O)[C@H]2CNC(=O)NCCC)cc1,5,4
Cc1noc(C)c1NC(=O)Nc1ccc2c(c1)C(=O)N([C@H](C)CO)C[C@H](C)[C@@H](CN(C)C(=O)C1CCCCC1)OCCCC[C@H](C)O2,11,1

# Reformatted with two lines to a compound: entries from further up
# The line under a structure holds: Vaccinia inh	Vaccinia inh Venus
- Cc1ccc(S(=O)(=O)N(C)C[C@@H]2Oc3c(NC(=O)Nc4ccccc4)cccc3C(=O)N([C@@H](C)CO)C[C@H]2C)cc1
 : 4	3
- Cc1noc(C)c1S(=O)(=O)Nc1ccc2c(c1)C(=O)N([C@H](C)CO)C[C@@H](C)[C@H](CN(C)Cc1ccc(C(=O)Nc3ccccc3N)cc1)O2
 : 30	0
- Cc1noc(C)c1NC(=O)N(C)C[C@@H]1Oc2ncc(Br)cc2C(=O)N([C@H](C)CO)C[C@@H]1C
 : 11	4
- CN1CCN(C(=O)C[C@H]2C[C@@H]3c4cc(NC(=O)NC5CCCCC5)ccc4O[C@@H]3[C@@H](CO)O2)CC1
 : 8	17
- CCCC#Cc1cnc2c(c1)C(=O)N([C@H](C)CO)C[C@H](C)[C@H](CN(C)C(=O)c1cnccn1)O2
 : 15	7
- CO[C@@H]1CN(C)C(=O)c2ccc(NS(C)(=O)=O)cc2OC[C@H](C)N(C(=O)CN(C)C)C[C@@H]1C
 : 7	2
- CCNC(=O)C[C@@H]1CC[C@H]2[C@H](COc3ccc(NC(=O)c4ccc(F)c(F)c4)cc3C(=O)N2C)O1
 : 11	15
- CC(C)NC(=O)N1[C@@H]2c3cccc(=O)n3C[C@@H]2[C@@H](CO)[C@@H]1C(=O)N1CCc2ccccc2C1
 : 10	9
- CO[C@H]1CN(C)C(=O)c2ccc(NS(=O)(=O)c3ccc(Cl)cc3)cc2OC[C@H](C)N(C)C[C@@H]1C
 : 13	17
- COc1ccc(NC(=O)Nc2ccc3c(c2)C(=O)N([C@@H](C)CO)C[C@H](C)[C@H](CN(C)C(=O)Nc2ccccc2)O3)cc1
 : 7	-4
- CO[C@@H]1CN(C)C(=O)c2ccc(NC(=O)C3CC3)cc2OC[C@H](C)NC[C@@H]1C
 : -2	-3

# Next part
SMILES,Vaccinia inh,Vaccinia inh Venus
COc1ccc2c3c([nH]c2c1)[C@@H](CO)N(C(=O)c1ccccc1)CC31CCN(C(=O)c2cccc(F)c2)CC1,-21,-17
O=C(C[C@H]1C[C@@H]2c3cc(NC(=O)Nc4ccc(F)cc4)ccc3O[C@@H]2[C@H](CO)O1)NC1CCCC1,13,6
COC(=O)C[C@@H]1CC[C@@H]2[C@H](COc3ccc(NS(=O)(=O)c4ccccc4Cl)cc3C(=O)N2C)O1,1,3
C[C@@H]1CN([C@@H](C)CO)S(=O)(=O)c2ccc(C#Cc3ccccc3F)cc2O[C@H]1CN(C)C,u,x
C/C=C/c1ccc([C@@H]2[C@H](CO)N3CCCCN(S(=O)(=O)c4ccccc4)C[C@@H]23)cc1,-12,-10
C[C@H](CO)N1C[C@H](C)[C@@H](CN(C)C(=O)Oc2ccccc2)OCc2cnnn2CCCC1=O,6,2
COCC(=O)NC[C@H]1[C@H](c2ccccc2)[C@@H](CO)N1C(=O)c1ccccc1,13,1
Cc1noc(C)c1NC(=O)N(C)C[C@H]1Oc2c(NS(=O)(=O)c3ccc(F)cc3)cccc2C(=O)N([C@H](C)CO)C[C@H]1C,21,10
COc1ccc(CN(C)C[C@@H]2Oc3ccc(NC(=O)NC4CCCCC4)cc3C(=O)N([C@H](C)CO)C[C@@H]2C)cc1,-9,-5
C[C@@H]1CN([C@H](C)CO)C(=O)c2cc(NS(C)(=O)=O)ccc2O[C@@H](C)CCCCO[C@@H]1CN(C)Cc1ccc2c(c1)OCO2,-3,-5
O=C([C@@H]1[C@@H](CO)[C@@H]2Cn3c(ccc(-c4ccccc4)c3=O)[C@H]1N2CCC(F)(F)F)N1CCCCC1,-7,5
C[C@@H]1CN([C@@H](C)CO)C(=O)CCCn2nncc2CO[C@H]1CN(C)S(=O)(=O)c1ccc(F)cc1,2&2,7&5
C[C@H]1CN([C@@H](C)CO)C(=O)c2cc(NC(=O)c3ccncc3)ccc2O[C@H]1CN(C)CC1CCCCC1,5,15
O=C(Cc1ccccn1)N1CC2(C1)[C@@H](c1ccccc1)[C@@H](CO)N2C(=O)c1ccccc1,0,3
O=C(c1ccc(F)cc1)N1C[C@@H]2N[C@H](C1)C2c1ccc(-c2cncnc2)cc1 (stereo not given in full),-23,-27
CNC(=O)C[C@H]1CC[C@@H]2[C@H](COC[C@@H](O)CN2S(=O)(=O)c2ccccc2Cl)O1,17,8
OC[C@@H]1[C@@H](c2ccc(-c3ccc(F)cc3)cc2)[C@@H]2CN(CCC(F)(F)F)CCCCN12,u,x
O=C(C[C@H]1CC[C@H](NC(=O)Cc2cccnc2)[C@H](CO)O1)Nc1ccccc1,13,5
C[C@H](NC(=O)[C@H]1[C@H](CO)[C@H]2Cn3c(cccc3=O)[C@@H]1N2C(=O)C1CCC1)c1ccccc1,23,17
C[C@H](CO)N1C[C@H](C)[C@@H](CN(C)Cc2ccccn2)Oc2ncc(C#CCC3CCCC3)cc2C1=O,-25,-20
C[C@@H]1CN([C@@H](C)CO)C(=O)c2cc(NS(=O)(=O)c3cccs3)ccc2O[C@@H]1CN(C)Cc1ccc(Oc2ccccc2)cc1,-11,-3
COc1ccc(CN(C)C[C@H]2Oc3ccc(NC(=O)NC4CCCCC4)cc3CC(=O)N([C@@H](C)CO)C[C@@H]2C)cc1,0,0
C[C@H](CO)N1C[C@H](C)[C@@H](CN(C)Cc2ccc(C(F)(F)F)cc2)Oc2ccc(NS(=O)(=O)c3ccccc3)cc2C1=O,-5,-6
O=C(Cc1cccnc1)N1CC(=O)N2[C@H](C1)[C@@H](c1ccc(C3=CCCCC3)cc1)[C@@H]2CO,1,2
C[C@@H]1CN([C@@H](C)CO)C(=O)c2cccc(NC(=O)Nc3ccccc3)c2O[C@H]1CN(C)S(=O)(=O)c1ccccc1,-1,-7
Cc1cccc(-c2ccc([C@@H]3[C@@H](CO)N4C(=O)CN(C(=O)NC5CCCCC5)C[C@@H]34)cc2)c1,-24,-27
CC=Cc1ccc2n(c1=O)C[C@H]1[C@H](CO)[C@@H](C(=O)NCC3CC3)[C@@H]2N1C(=O)c1ccccc1 (mixture of isomers),-6,-7
COc1ccc(-c2cnc3c(c2)C(=O)N([C@H](C)CO)C[C@@H](C)[C@@H](CN(C)Cc2ccccn2)O3)cc1,12,9
C[C@@H]1CN([C@H](C)CO)C(=O)c2ccccc2-c2ccccc2CO[C@@H]1CN(C)Cc1ccc(Oc2ccccc2)cc1,u,x
C[C@H]1CCCCO[C@H](CN(C)C(=O)Nc2ccccc2)[C@@H](C)CN([C@@H](C)CO)C(=O)c2cc(NS(=O)(=O)c3ccc(Cl)cc3)ccc2O1,-20,-19
Cc1ccccc1NC(=O)Nc1ccc2c(c1)C(=O)N(C)[C@H]1CC[C@@H](CC(=O)NCC3CC3)O[C@@H]1CO2,24,15
N#C[C@H]1N[C@H](CO)[C@@H]1c1ccc(C2=CCCCC2)cc1,1,10
O=C(Nc1cccc(F)c1)N1CC(=O)N2[C@H](CO)[C@H](c3ccc(C#Cc4cccnc4)cc3)[C@H]2C1,-20,-31
Cc1cccc(NC(=O)Nc2ccc3c(c2)C(=O)N(C)[C@@H]2CC[C@@H](CC(=O)NCc4ccccc4Cl)O[C@@H]2CO3)c1,-6,7
O=C(C[C@@H]1C=C[C@@H](NC(=O)Nc2ccc3c(c2)OCO3)[C@H](CO)O1)NCCCN1CCOCC1,2,-3
O=C(C[C@@H]1C=C[C@@H](NS(=O)(=O)c2ccccc2)[C@@H](CO)O1)NCc1ccccc1F,-5,-10
C[C@@H]1CN([C@@H](C)CO)S(=O)(=O)c2ccc(C#CC(C)(C)O)cc2O[C@H]1CN(C)Cc1ccncc1,-11,0
C[C@H](CO)N1C[C@H](C)[C@@H](CN(C)Cc2ccccc2)Oc2ncc(C#Cc3cccnc3)cc2C1=O,-5,-7
C[C@H](CO)N1C[C@H](C)[C@@H](CN(C)C(=O)Cc2ccccn2)Oc2ncc(-c3ccccc3)cc2C1=O,12,3
Cc1noc(C)c1NC(=O)Nc1ccc2c(c1)C(=O)N([C@@H](C)CO)C[C@H](C)[C@H](CN(C)S(C)(=O)=O)O2,12,10
CNC[C@H]1OCCCC[C@@H](C)Oc2ccc(NC(=O)NC(C)C)cc2C(=O)N([C@H](C)CO)C[C@H]1C,4,4
C[C@@H]1CCCCO[C@@H](CN(C)S(=O)(=O)c2cn(C)cn2)[C@H](C)CN([C@H](C)CO)C(=O)c2cc(NC(=O)C3CCCCC3)ccc2O1,16,11
COc1ccccc1S(=O)(=O)N[C@H]1CC[C@H](CC(=O)N2CCN(C)CC2)O[C@@H]1CO,-3,-3
O=C(C[C@@H]1C[C@@H]2c3cc(NC(=O)C4CCOCC4)ccc3O[C@@H]2[C@H](CO)O1)NCc1cccc(F)c1,12,8
O=C(C1CCC1)N1C[C@H]2[C@@H](c3ccccc31)[C@H](CO)N2C(=O)Cc1ccccn1,-7,-4
O=C(NCCN1CCCC1)[C@@H]1N[C@@H]2c3ccc(C4=CCCCC4)c(=O)n3C[C@@H]2[C@H]1CO,5,-3
CO[C@@H]1CN(C)C(=O)c2ccc(NS(C)(=O)=O)cc2OC[C@@H](C)N(C(=O)C2CCCCC2)C[C@H]1C,12,10
COc1ccccc1-c1ccc2c(c1)O[C@H](CN(C)C(=O)c1ccccc1)[C@H](C)CN([C@@H](C)CO)S2(=O)=O,-15,-23
CC(=O)N1[C@@H]2c3ccc(-c4ccccc4)c(=O)n3C[C@@H]2[C@@H](CO)[C@@H]1C(=O)NCc1ccccc1Cl,-1,-7
O=C(NC1CCCCC1)[C@@H]1N[C@@H]2c3ccc(-c4cccc(F)c4)c(=O)n3C[C@@H]2[C@H]1CO,4,10

# Only part of the results is shown. The share of hits here may be higher or lower than overall.
